From PubChem BioAssay
AF4-AF9 inh: inhibitors of human MLL-AF4/AF9 interaction | AlphaScreen, biotin-AF4 peptide binding to FLAG-AF9 | inhibition, % at 10 µM | 0.47% of 350,000 active | AID 651704;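 active means every replicate reaching a set inhibition limit, whatever the replicate mean, cut at about 25% in these data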;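 further: 0% = plate neutral control median and 100% = total signal loss; the record names both 10 and 1 µM as test concentration; the first replicate is given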
Target sequence (P42568 whole entry, looked up): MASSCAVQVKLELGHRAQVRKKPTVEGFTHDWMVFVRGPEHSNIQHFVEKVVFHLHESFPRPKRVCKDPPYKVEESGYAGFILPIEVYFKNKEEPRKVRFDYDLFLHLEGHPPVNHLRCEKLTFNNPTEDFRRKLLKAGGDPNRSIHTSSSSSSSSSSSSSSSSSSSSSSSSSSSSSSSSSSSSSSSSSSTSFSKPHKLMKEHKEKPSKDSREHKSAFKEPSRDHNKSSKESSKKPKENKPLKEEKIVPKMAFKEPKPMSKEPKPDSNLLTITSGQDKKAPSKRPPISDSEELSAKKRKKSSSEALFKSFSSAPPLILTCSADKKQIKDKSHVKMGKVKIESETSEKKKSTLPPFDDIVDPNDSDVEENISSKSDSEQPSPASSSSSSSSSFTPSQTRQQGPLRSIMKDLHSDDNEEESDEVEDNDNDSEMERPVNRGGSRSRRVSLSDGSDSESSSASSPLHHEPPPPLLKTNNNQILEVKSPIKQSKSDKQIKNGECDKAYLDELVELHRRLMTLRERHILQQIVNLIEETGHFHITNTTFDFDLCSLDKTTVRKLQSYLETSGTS
Ecoli rRNA inh: inhibits bacterial ribosomal RNA function over humanized ribosomes | E. coli WT GFP vs humanized-ribosome RFP mutants, fluorescence, 24 h; stronger effect = lower value; DMSO median 0, no signal -100 | GFP signal change (wild-type ribosome), % (test concentration not listed) | 1.6% of 350,000 active;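 active means significant combined selectivity score with lowered wild-type GFP, culture density cut under 30%, mutant RFP and density less affected; inactive means any of these conditions unmet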; further: one replicate is shown; some compounds called inactive have numbers as strong as hits
Ecoli rRNA inh OD600: recorded beside Ecoli rRNA inh, whose call it bears; OD600 change, %; measured here: OD600 growth;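 optical density of the mix in the first replicate; 0 = DMSO median and -100 = no signal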
Ecoli rRNA inh RFP: further read-out of Ecoli rRNA inh, marked with its call; RFP signal change, %; measured here: RFP humanized mutant strains;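 first replicate; 0 = DMSO median and -100 = no signal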
* = called active by the depositor. A portion of the library (hit frequency here may not be typical).

SMILES	AF4-AF9 inh	Ecoli rRNA inh	Ecoli rRNA inh OD600	Ecoli rRNA inh RFP
C[C@H](CO)N1C[C@H](C)[C@@H](CN(C)C(=O)Cc2ccccc2)Oc2ncc(-c3ccccc3)cc2C1=O	-3.2	-3.6	3.8	1.6
CO[C@@H]1CN(C)C(=O)c2cc(NS(C)(=O)=O)ccc2OC[C@H](C)N(C(=O)C2CCCCC2)C[C@H]1C	-2.2	2.3	1.1	-0.8
C[C@H]1CN([C@@H](C)CO)C(=O)c2cccc(NC(=O)Nc3ccc4c(c3)OCO4)c2O[C@H]1CN(C)C	0.2	7.5	6.0	1.2
CN(C)CC(=O)N[C@H]1C=C[C@@H](CC(=O)NCc2ccccc2F)O[C@@H]1CO	-1.6	0.9	-2.8	-0.8
C[C@H](CO)N1C[C@H](C)[C@H](CN(C)C)OCCCC[C@H](C)Oc2ccc(NS(=O)(=O)c3ccc(Cl)cc3)cc2C1=O	1.2	-1.1	-4.5	0.8
Cc1noc(C)c1S(=O)(=O)Nc1ccc2c(c1)C(=O)N([C@@H](C)CO)C[C@H](C)[C@@H](CN(C)CC1CC1)O2	-1.0	2.6	18.4	-2.7
COc1ccc(CN(C)C(=O)Cn2cc(C)c(=O)[nH]c2=O)cc1OC	-3.3	4.6	3.2	-4.9
COc1ccc(NC(=O)N[C@@H]2CC[C@@H](CCNS(=O)(=O)c3cccc(Cl)c3)O[C@@H]2CO)cc1	-9.0	-7.6	-7.9	-0.2
COCC(=O)N1CC2(C1)CN(Cc1cccc(F)c1)[C@@H](CO)c1c2c2ccc(OC)cc2n1C	-1.9	-0.4	0.3	0.7
CCOC(=O)N(C)c1c(CC)nc2c(OCc3ccccc3OC)cccn12	-3.2	2.3	6.0	6.3

Some of the entries above in a different format.
SMILES: C[C@H](CO)N1C[C@H](C)[C@H](CN(C)C)OCCCC[C@H](C)Oc2ccc(NS(=O)(=O)c3ccc(Cl)cc3)cc2C1=O
  AF4-AF9 inh: 1.2
  Ecoli rRNA inh: -1.1
  Ecoli rRNA inh OD600: -4.5
  Ecoli rRNA inh RFP: 0.8
SMILES: CN(C)CC(=O)N[C@H]1C=C[C@@H](CC(=O)NCc2ccccc2F)O[C@@H]1CO
  AF4-AF9 inh: -1.6
  Ecoli rRNA inh: 0.9
  Ecoli rRNA inh OD600: -2.8
  Ecoli rRNA inh RFP: -0.8

Next part.
SMILES	AF4-AF9 inh	Ecoli rRNA inh	Ecoli rRNA inh OD600	Ecoli rRNA inh RFP
O=C(NCCN1CCN(c2cccc(Cl)c2)CC1)c1cccn2c(=O)c3ccccc3nc12	-11.8	5.3	-7.4	-0.1
C[C@@H]1CCCCO[C@@H](CN(C)C(=O)Nc2ccc(C(F)(F)F)cc2)[C@H](C)CN([C@H](C)CO)C(=O)c2cc(NC(=O)c3ccccc3)ccc2O1	-10.1	5.2	8.2	-1.8
Cc1ccccc1-c1cnc2c(c1)C(=O)N([C@H](C)CO)C[C@H](C)[C@H](CN(C)CC1CCOCC1)O2	-4.3	1.6	-0.7	-3.9
CS(=O)(=O)Nc1ccc2c(c1)[C@@H]1C[C@@H](CC(=O)O)O[C@H](CO)[C@@H]1O2	-3.7	5.0	9.4	-1.7
O=C(C[C@@H]1C[C@H]2c3cc(NC(=O)C4CCC4)ccc3O[C@H]2[C@@H](CO)O1)NCCN1CCCCC1	1.3	0.9	2.3	-0.8
O=C(C[C@H]1C[C@H]2c3cc(NC(=O)CC4CC4)ccc3O[C@H]2[C@@H](CO)O1)NCc1ccccc1	-0.3	2.5	-0.3	-1.1
OC[C@@H]1[C@@H](c2ccc(C#Cc3ccccc3F)cc2)[C@H]2CN(CC3CCOCC3)CCCCN12	12.5	-26.1	-48.8	1.9
C[C@@H](O)C#Cc1ccc2c(c1)O[C@H](CN(C)C(=O)CC1CC1)[C@@H](C)CN([C@@H](C)CO)S2(=O)=O	0.8	-0.3	8.6	-1.5
CC(C)(C)[S@](=O)N1Cc2cc(C(=O)NC3CCCCC3)nc(-c3cccc(Br)c3)c2[C@@H]1CCO	-12.3	-11.3	-21.6	32.9
O=C(C[C@@H]1CC[C@H]2[C@@H](COC[C@H](O)CN2C(=O)Nc2ccc(F)cc2)O1)NCCCN1CCOCC1	-26.8	4.6	4.1	-4.2
CCS(=O)(=O)N1Cc2cc(C(=O)NCC3CC3)nc(-c3cccc(-c4cccnc4)c3)c2[C@H]1CCO	1.3	0.0	0.7	2.0
O=C(CN1CCOCC1)N1[C@H](CO)[C@@H]2c3ccccc3NC[C@@H]21	-0.8	2.5	-4.7	-0.7
CCS(=O)(=O)N[C@@H]1C=C[C@H](CC(=O)NC2Cc3ccccc3C2)O[C@H]1CO	-1.9	1.2	0.3	-1.5
C[C@H](CO)N1C[C@H](C)[C@H](CN(C)C(=O)Nc2cc(F)ccc2F)Oc2cc(C#CC3CCCC3)ccc2S1(=O)=O	1.6	4.3	17.9	-1.1
O=C(NCc1ccco1)c1cccc2c(-c3ccc(F)c(F)c3)coc12	0.4	-0.8	-26.1	-4.7
CC(=O)Nc1cc(-c2ccccc2N(C)C)cn2c(-c3ccc(F)c(Cl)c3)cnc12	6.5	-0.8	-17.2	9.4
C[C@H](CO)N1C[C@H](C)[C@H](CN(C)C(=O)NC2CCCC2)Oc2ncc(-c3cccnc3)cc2C1=O	-13.9	6.3	8.8	-1.9
COc1ccc(NC(=O)Nc2ccc3c(c2)C(=O)N([C@@H](C)CO)C[C@@H](C)[C@@H](CN(C)Cc2ccncc2)OCCCC[C@H](C)O3)cc1	3.8	-1.8	-2.1	5.6
COc1cccc(C#Cc2cnc3c(c2)C(=O)N([C@H](C)CO)C[C@@H](C)[C@H](CN(C)C)O3)c1	10.4	2.9	-5.2	1.5
COCC(=O)N(C)C[C@@H]1Oc2ncc(C#Cc3ccccc3OC)cc2C(=O)N([C@H](C)CO)C[C@@H]1C	-3.6	2.4	3.0	-4.9
O=C(C[C@H]1CC[C@@H]2[C@H](COC[C@H](O)CN2CC2CCCC2)O1)NCc1ccc(Cl)cc1	-0.9	-60.6	-82.3	-16.4
C[C@H]1CCCCO[C@@H](CN(C)C(=O)C2CCCCC2)[C@@H](C)CN([C@@H](C)CO)C(=O)c2cc(NC(=O)Nc3ccc(C(F)(F)F)cc3)ccc2O1	1.3	0.2	-0.8	-0.6
Cc1ccc(S(=O)(=O)N(C)C[C@H]2Oc3ccc(NC(=O)Cc4cn(C)c5ccccc45)cc3C(=O)N([C@@H](C)CO)C[C@@H]2C)cc1	2.0	-1.8	2.1	3.7
NCC(O)c1ccc(O)c(O)c1 (configuration not stated)	-1.0	1.0	8.7	-1.7
COC(=O)c1cc2c(c3c4ccccc4n(S(=O)(=O)c4ccccc4)c13)C(=O)N(Cc1ccco1)C2	-0.2	-19.4	-28.8	1.7
CCC(=O)N(C)C[C@H]1Oc2ncc(C#C[C@@H](C)O)cc2C(=O)N([C@@H](C)CO)C[C@@H]1C	-3.8	2.7	6.4	-1.5
CCCN(C)C[C@H]1Oc2cc(C#Cc3ccccn3)ccc2S(=O)(=O)N([C@@H](C)CO)C[C@H]1C	1.5	-2.6	5.4	1.6
COc1ccccc1NC(=O)C1=C(C)Nc2nc(-c3cccnc3)nn2C1c1ccccn1 (configuration not stated)	-1.3	9.8	6.2	3.8
c1coc(-c2cc3nc(NC4CCCCC4)ccn3n2)c1	2.3	-0.9	5.4	3.9
C[C@@H]1CCCCO[C@@H](CN(C)C(=O)CCCN(C)C)[C@@H](C)CN([C@H](C)CO)C(=O)c2cc(NC(=O)Nc3ccc4c(c3)OCO4)ccc2O1	1.8	6.2	19.4	0.5

Looked up above:
Ecoli rRNA inh RFP, `CCS(=O)(=O)N1Cc2cc(C(=O)NCC3CC3)nc(-c3cccc(-c4cccnc4)c3)c2[C@H]1CCO` : 2.0
Ecoli rRNA inh, `COc1ccc(CN(C)C(=O)Cn2cc(C)c(=O)[nH]c2=O)cc1OC` : 4.6
Ecoli rRNA inh OD600, `O=C(NCc1ccco1)c1cccc2c(-c3ccc(F)c(F)c3)coc12` : -26.1
Ecoli rRNA inh OD600, `CN(C)CC(=O)N[C@H]1C=C[C@@H](CC(=O)NCc2ccccc2F)O[C@@H]1CO` : -2.8
Ecoli rRNA inh, `Cc1ccccc1-c1cnc2c(c1)C(=O)N([C@H](C)CO)C[C@H](C)[C@H](CN(C)CC1CCOCC1)O2` : 1.6

Other records follow:
SMILES	AF4-AF9 inh	Ecoli rRNA inh	Ecoli rRNA inh OD600	Ecoli rRNA inh RFP
C[C@@H]1CCCCO[C@@H](CN(C)S(=O)(=O)c2ccc(Cl)cc2)[C@@H](C)CN([C@H](C)CO)C(=O)c2cc(NC(=O)Nc3ccc4c(c3)OCO4)ccc2O1	-2.1	2.5	5.6	-2.5
C[C@@H]1CN([C@@H](C)CO)C(=O)c2cccc(NC(=O)c3cnccn3)c2O[C@H]1CN(C)Cc1ccc2c(c1)OCO2	-0.9	-1.6	-3.4	-0.2
Cc1ccc(S(=O)(=O)N[C@H]2CC[C@H](CC(=O)NCc3ccncn3)O[C@@H]2CO)cc1	-0.7	-0.6	17.3	-0.4
CO[C@@H](CN(C)C(=O)Nc1ccc(F)cc1)[C@@H](C)CN(Cc1ccccc1Cl)[C@@H](C)CO	3.5	-2.3	-11.7	-2.2
COc1ccccc1S(=O)(=O)N[C@H]1CC[C@@H](CCNC(=O)C2CCOCC2)O[C@@H]1CO	-0.5	-4.1	5.7	-3.1
CN1c2ccc(Br)cc2[C@@H]2[C@@H](CCN2C(=O)c2ccc(F)cc2)[C@H]1CO	-1.6	-3.1	-2.7	4.7
CO[C@@H]1CN(C)C(=O)c2cc(NC(=O)Nc3ccccc3F)ccc2OC[C@@H](C)NC[C@@H]1C	-11.8	-0.7	-3.7	0.7
Cc1noc(C)c1S(=O)(=O)Nc1ccc2c(c1)CC(=O)N([C@@H](C)CO)C[C@H](C)[C@@H](CN(C)C)O2	-2.5	1.6	8.8	-1.5
CCCC#Cc1ccc([C@H]2[C@@H](CO)N3CCCCN(S(=O)(=O)CC)C[C@H]23)cc1	4.1	3.5	15.0	2.8
Cc1ccccc1S(=O)(=O)N1CCCCN2[C@@H](CO)[C@H](c3ccc(-c4cncnc4)cc3)[C@@H]2C1	0.3	-3.2	8.5	0.4
COc1ccc(NC(=O)N2C[C@H](O)COC[C@@H]3O[C@@H](CC(=O)NC4Cc5ccccc5C4)CC[C@H]32)cc1	-3.4	-0.6	3.2	-1.1
COc1cccc(-c2ccc3c(c2)O[C@@H](CN(C)C(C)=O)[C@@H](C)CN([C@H](C)CO)S3(=O)=O)c1	-5.0	-7.2	3.4	-0.9
CCCNC(=O)N1CC2(CN(Cc3ccc(OC)cc3)C2)c2c(n(C)c3cc(OC)ccc23)[C@H]1CO	35.7*	-5.4	-9.8	8.5
Cc1ccc(S(=O)(=O)N2C[C@H](O)COC[C@H]3O[C@H](CC(=O)NCc4ccc(Cl)c(Cl)c4)CC[C@@H]32)cc1	2.3	-58.7	-76.0	-12.2
COCC#Cc1cnc2c(c1)C(=O)N([C@H](C)CO)C[C@H](C)[C@H](CN(C)S(C)(=O)=O)O2	-3.8	-0.5	2.2	-1.6
Cc1noc(C)c1NC(=O)N(C)C[C@@H]1OCc2ccccc2-c2ccccc2C(=O)N([C@H](C)CO)C[C@@H]1C	-4.4	2.3	-0.7	-2.5
O=C(C1CCCCC1)N1CC2(C1)[C@H](c1ccccc1)[C@@H](CO)N2C(=O)NC1CCCC1	-0.8	-4.7	-15.1	2.0
CS(=O)(=O)Nc1ccc2c(c1)[C@@H]1C[C@@H](CC(=O)NCC(F)(F)F)O[C@@H](CO)[C@@H]1O2	-9.5	5.6	5.0	-2.3
CN(C)C(=O)C[C@@H]1C=C[C@@H](NC(=O)C2CC2)[C@@H](CO)O1	-3.2	0.2	1.5	-0.6
COc1ccccc1Cc1c(-c2ccc(Cl)cc2)nc2c(Cl)cc(C(F)(F)F)cn12	0.0	11.2	4.3	-0.4
O=C(Nc1ccccc1)N1CC(=O)N2[C@@H](CO)[C@@H](c3ccc(C#CC4CCCCC4)cc3)[C@@H]2C1	3.8	-0.8	-3.8	3.1
O=C1CN(S(=O)(=O)c2ccccc2)C[C@H]2[C@@H](c3ccc(C4=CCCC4)cc3)[C@@H](CO)N12	-1.7	4.1	-30.2	19.9
C[C@@H]1CN([C@H](C)CO)C(=O)CCCn2nncc2CO[C@H]1CN(C)C(=O)Nc1ccc(F)cc1	-0.8	-0.8	-0.2	-1.5
CCCNC(=O)N[C@@H]1CC[C@@H](CC(=O)NCCc2ccccc2)O[C@@H]1CO	-3.6	5.3	6.7	-0.9
CCC(=O)Nc1ccc2c(c1)C(=O)N(C)C[C@@H](OC)[C@@H](C)CN(CCC(F)(F)F)[C@@H](C)CO2	-2.3	6.7	4.8	-0.5
O=C(C[C@@H]1C=C[C@H](NC(=O)C2CCOCC2)[C@@H](CO)O1)Nc1ccccc1	-1.6	3.1	7.8	0.4
O=C(C[C@@H]1C[C@@H]2c3cc(NC(=O)Cc4ccncc4)ccc3O[C@@H]2[C@H](CO)O1)NCc1ccncc1	0.7	-3.9	5.7	-2.2
COc1ccc(S(=O)(=O)Nc2ccc3c(c2)CC(=O)N([C@@H](C)CO)C[C@@H](C)[C@@H](CN(C)C(=O)Nc2ccc4c(c2)OCO4)O3)cc1	-0.1	-2.3	-6.4	-0.5
O=C(C1CC1)N1CC(=O)N2[C@H](C1)[C@@H](c1ccc(C#CCc3ccccc3)cc1)[C@@H]2CO	-2.8	0.6	6.4	0.5
CN(C)Cc1cn(CC[C@H]2CC[C@@H](NC(=O)Nc3ccccc3F)[C@@H](CO)O2)nn1	-2.3	1.1	5.2	-2.3
